Screening results deposited in PubChem BioAssay by several laboratories.
Beta cell apopt: inhibitors of cytokine-induced beta cell apoptosis, primary screen, luminescence; protection from apoptosis, % (no concentration beside the values); AID 435005, 2010; hit rate 0.8% among 300,000; INS-1E cytokine-induced death, ATP luminescence, 48 h; percent of positive-control rescue, neutral wells zero;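 active = all replicates at 75% or more, or half of them and the mean; inconclusive = half reach 75% but not the mean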;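 also: 0% = cytokine-treated negative control wells and 100% = positive control rescue; higher means more ATP so stronger rescue from cytokine killing; wells of about 40 µL received 100 nL stock; the first replicate is given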
FGF22 binding: binders of human FGF22 protein, primary screen, FGF22 synaptogenesis inhibitor project, biophysical, thermal shift, single point; Fibroblast growth factor 22 (Homo sapiens), Q9HCT0; recombinant FGF22 thermal shift, SYPRO orange fluorescence; percent of sucrose octasulfate shift, DMSO zero; calls only at 9.99 µM; hit rate 1.5% among 340,000;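 active = melting point raised past a set limit in the mean and every replicate; inconclusive = no clear call; three in four hits are not shown here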
Target sequence (Q9HCT0 whole entry, looked up): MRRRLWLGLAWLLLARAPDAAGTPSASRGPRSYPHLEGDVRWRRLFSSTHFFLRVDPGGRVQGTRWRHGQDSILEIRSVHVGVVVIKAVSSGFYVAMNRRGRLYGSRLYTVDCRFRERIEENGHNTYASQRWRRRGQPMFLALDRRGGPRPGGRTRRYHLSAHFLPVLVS
MLL AF4-AF9 inh: inhibitors of AF4 peptide binding to AF9, primary screen, biochemical, AlphaScreen, biotin-AF4 peptide, FLAG-AF9, single point; Protein AF-9 (Homo sapiens), P42568; inhibition, % at 10 µM; hit rate 0.47% among 350,000;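 active = every replicate reaching a set inhibition limit, whatever the replicate mean, cut at about 25% in these data; inconclusive = mean inhibition reaches that limit but some replicates miss it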;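 also: 0% = plate neutral control median and 100% = total signal loss; the record names both 10 and 1 µM as test concentration; the first replicate is given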
Target sequence (P42568 whole entry, looked up): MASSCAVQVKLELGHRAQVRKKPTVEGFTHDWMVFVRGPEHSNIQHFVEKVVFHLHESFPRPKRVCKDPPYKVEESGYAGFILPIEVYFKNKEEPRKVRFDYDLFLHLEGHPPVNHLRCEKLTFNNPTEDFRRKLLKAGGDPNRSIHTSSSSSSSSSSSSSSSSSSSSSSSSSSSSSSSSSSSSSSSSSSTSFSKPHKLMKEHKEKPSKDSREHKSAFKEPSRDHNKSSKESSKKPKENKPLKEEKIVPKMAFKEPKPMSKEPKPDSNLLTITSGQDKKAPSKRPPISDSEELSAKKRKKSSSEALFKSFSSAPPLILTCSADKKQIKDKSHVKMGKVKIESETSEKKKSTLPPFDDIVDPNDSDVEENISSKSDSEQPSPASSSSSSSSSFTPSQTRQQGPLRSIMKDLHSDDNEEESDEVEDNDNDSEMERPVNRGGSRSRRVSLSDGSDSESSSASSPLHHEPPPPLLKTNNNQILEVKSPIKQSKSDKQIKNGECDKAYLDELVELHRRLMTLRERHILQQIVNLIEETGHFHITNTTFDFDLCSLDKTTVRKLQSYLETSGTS
T cruzi repl: inhibitors of intracellular T. cruzi growth, primary screen, luminescence, NIH3T3 host cells. T. cruzi beta-gal in NIH3T3, 90 h. inhibition, % (concentration not given with the values). hit rate 1.4% among 300,000;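 active = mean inhibition across valid replicates above about 55%, limit read from the data; inconclusive = mean below that limit but half or more replicates reach it; inactive = mean below it, under half of replicates reach it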;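 also: signal also drops with host cell toxicity which is not excluded here; 0% = plate median of DMSO wells and 100% = zero luminescence signal; higher percent means less beta-gal luminescence so fewer parasites; stock transfer was 50 nL into about 50 µL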
Ecoli rRNA inh: reduced GFP signal of wild-type E. coli, primary screen, bacterial rRNA inhibitor project, GFP/RFP fluorescence, OD600, single point. E. coli WT GFP vs humanized-ribosome RFP mutants, 24 h; stronger effect = lower value; DMSO median 0, no signal -100. GFP signal change (wild-type ribosome), % (no concentration beside the values). AID 720706, 2013. hit rate 1.6% among 350,000;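 active = significant combined selectivity score with lowered wild-type GFP, culture density cut under 30%, mutant RFP and density less affected; inactive = any of these conditions unmet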; also: one replicate is shown; some compounds called inactive have numbers as strong as hits
Bfl-1 A1 inh: caspase 3/7 activation in MEF A1-2A-BIM cells, primary screen, A1 inhibitor project, cell-based, luminescence, HTS | hit rate 0.066% among 330,000 | Caspase-Glo 3/7 luminescence, 3 h; percent of clofoctol response, vehicle zero | caspase activation, % (concentration not given with the values);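 active = over half of replicate activation scores above 10%, or exactly half above 10 with the replicate mean above 10; inconclusive = replicate mean below 10 yet half the replicates above 10; inactive = over half of replicates below 10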;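 also: wells of about 30 µL received 50 nL stock; many hits fall short of the cut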
E coli growth: E. coli growth inhibition, primary screen, OD600. Escherichia coli growth, 23 h; stronger effect = lower value. OD600 absorbance (test concentration not listed). hit rate 0.21% among 330,000. AID 1053175, 2014;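 active = OD600 absorbance below the run mean of sample wells minus 3.6 SD, in any replicate, cut at about 0.56 in these data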;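 also: stock transfer was 300 nL into about 60 µL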
UCH37 inh: inhibitors of human UCH37 deubiquitinase, primary screen, biochemical, Ub-AMC cleavage, fluorescence; inhibition, % (no concentration beside the values); AID 588478, 2011; purified proteasome/UCH37; hit rate 0.33% among 330,000;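 active = mean of two replicates above 20%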;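 also: 0% = compound-free wells with enzyme and 100% = wells lacking proteasome; stock transfer was 100 nL into about 20 µL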
Target sequence (Q9Y5K5 whole entry, looked up): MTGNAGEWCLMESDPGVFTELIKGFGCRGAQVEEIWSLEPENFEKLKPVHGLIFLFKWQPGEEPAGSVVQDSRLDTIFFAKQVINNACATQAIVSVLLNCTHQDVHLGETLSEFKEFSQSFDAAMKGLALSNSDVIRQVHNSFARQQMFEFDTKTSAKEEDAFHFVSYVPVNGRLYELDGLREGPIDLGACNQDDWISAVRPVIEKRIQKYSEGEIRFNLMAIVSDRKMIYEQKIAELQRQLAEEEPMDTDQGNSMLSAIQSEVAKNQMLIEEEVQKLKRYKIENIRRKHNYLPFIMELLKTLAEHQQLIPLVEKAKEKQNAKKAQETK
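Schedule: 30 min plus 25 min, room temperature / Material: human UCH37 within purified proteasomes / Technique: AMC fluorescence intensity at 355/460 nm / Buffer or medium: pH 7.4 Tris-HCl (50 mM) with ovalbumin, ATP-MgCl2, DTT / Controls: wells without proteasome as full block, compound-free enzyme plus substrate as uninhibited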
Ecoli rRNA inh OD600: also measured in Ecoli rRNA inh; calls as there; OD600 change, %; measured here: OD600 growth;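 optical density of the mix in the first replicate; 0 = DMSO median and -100 = no signal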
Ecoli rRNA inh RFP: also measured in Ecoli rRNA inh; calls as there; RFP signal change, %; measured here: RFP humanized mutant strains;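 first replicate; 0 = DMSO median and -100 = no signal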
The depositor's hits bear a star; & = joins results of further samples. Only part of the results is shown; count on the stated rates, not on these rows.

How did C[C@@]12N[C@@H](Cc3ccccc31)c1ccccc12 do in these assays?
Beta cell apopt: -2; FGF22 binding: inactive; MLL AF4-AF9 inh: -0.6&-1.7; T cruzi repl: -16; Ecoli rRNA inh: 8; Bfl-1 A1 inh: 0.6; UCH37 inh: 1.5; Ecoli rRNA inh OD600: 1; Ecoli rRNA inh RFP: -0.9

What do the screens show for `Cc1c(N=Cc2c(O)n(Cc3ccc(F)cc3)c(=O)[nH]c2=O)c(=O)n(-c2ccccc2)n1C`?
Beta cell apopt: -4; T cruzi repl: -9; Ecoli rRNA inh: 4; E coli growth: 0.72; UCH37 inh: 11; Ecoli rRNA inh OD600: -2; Ecoli rRNA inh RFP: -0.1

Results for COC(=O)C1=C(c2cccc(OC)c2OC)C[C@@H]2CC[C@H]1N2C(=O)NCc1ccc(C(F)(F)F)cc1 ?
Beta cell apopt: -10; FGF22 binding: inactive; MLL AF4-AF9 inh: 2.3; T cruzi repl: -3; Ecoli rRNA inh: -4; Bfl-1 A1 inh: 0.6; UCH37 inh: 3.6; Ecoli rRNA inh OD600: -17; Ecoli rRNA inh RFP: -3.2

Results for O=C1CN=C(c2ccccc2)c2cc(Br)ccc2N1Cc1cc(=O)n2ccccc2n1 ?
Beta cell apopt: 4; T cruzi repl: 5; Bfl-1 A1 inh: 0.0; E coli growth: 0.72; UCH37 inh: -1.5

How did COC(=O)C1=C(c2ccc(F)cc2OCc2ccccc2)C[C@@H]2CC[C@H]1N2C(=O)NCc1ccc(OC)c(OC)c1 do in these assays?
Beta cell apopt: -2; FGF22 binding: inactive; MLL AF4-AF9 inh: -1.5; Ecoli rRNA inh: -4; Bfl-1 A1 inh: -0.9; E coli growth: 0.79; UCH37 inh: 0.4; Ecoli rRNA inh OD600: -12; Ecoli rRNA inh RFP: 2.4

What do the screens show for `Cc1ccc(CNCCc2ccccc2F)cc1`?
Beta cell apopt: -1; FGF22 binding: inactive; MLL AF4-AF9 inh: 7.0; T cruzi repl: -4; Ecoli rRNA inh: 11; Bfl-1 A1 inh: 0.1; E coli growth: 0.67; UCH37 inh: 3.0; Ecoli rRNA inh OD600: -13; Ecoli rRNA inh RFP: 1.9

What do the screens show for `Cc1ccsc1C(=O)C1CCCN(Cc2cc(C(C)C)n[nH]2)C1` (stereo unspecified)?
Beta cell apopt: -4; FGF22 binding: inactive; MLL AF4-AF9 inh: 4.3; T cruzi repl: 28; Ecoli rRNA inh: 3; Bfl-1 A1 inh: -0.2; E coli growth: 0.66; UCH37 inh: 0.7; Ecoli rRNA inh OD600: -9; Ecoli rRNA inh RFP: 2.0

How did COc1ccc(CNC(=O)CCC(=O)N2C[C@H]3C[C@H](C2)c2cccc(=O)n2C3)cc1 do in these assays?
FGF22 binding: inactive; MLL AF4-AF9 inh: -1.6; T cruzi repl: -12; Ecoli rRNA inh: 12; Bfl-1 A1 inh: 0.6; E coli growth: 0.72; UCH37 inh: 1.3; Ecoli rRNA inh OD600: 10; Ecoli rRNA inh RFP: 1.3

Results for Cc1ccsc1C(=O)C1CCCN(Cc2ccc(O)cc2)C1 (stereo unspecified) ?
Beta cell apopt: 2; FGF22 binding: inactive; MLL AF4-AF9 inh: -0.2; T cruzi repl: 20; Ecoli rRNA inh: 11; Bfl-1 A1 inh: -0.5; E coli growth: 0.61; UCH37 inh: 2.3; Ecoli rRNA inh OD600: 8; Ecoli rRNA inh RFP: 6.4

What do the screens show for `c1cnc(N2CCNCC2)nc1`?
Beta cell apopt: 14; FGF22 binding: inactive; MLL AF4-AF9 inh: -1.9; T cruzi repl: -10; Ecoli rRNA inh: 2; Bfl-1 A1 inh: -0.8; E coli growth: 0.68; UCH37 inh: 0.8; Ecoli rRNA inh OD600: 0; Ecoli rRNA inh RFP: -0.7

How did Cc1ccc2c(c1)=NC(=O)/C(=C/c1c(O)[nH]c(=O)[nH]c1=O)C=2 do in these assays?
Beta cell apopt: -3; FGF22 binding: inactive; MLL AF4-AF9 inh: -3.2; T cruzi repl: 11; Ecoli rRNA inh: 13; Bfl-1 A1 inh: 1.8; E coli growth: 0.67; UCH37 inh: 4.4; Ecoli rRNA inh OD600: 2; Ecoli rRNA inh RFP: -3.5

Results for O=C1CN=C(c2ccc(Br)cc2)c2c(sc3c2CCCC3)N1CCN1CCCCC1 ?
Beta cell apopt: 21; FGF22 binding: inactive; MLL AF4-AF9 inh: 32*; T cruzi repl: 40; Ecoli rRNA inh: -52; Bfl-1 A1 inh: -0.7; E coli growth: 0.66; UCH37 inh: 1.6; Ecoli rRNA inh OD600: -67; Ecoli rRNA inh RFP: -1.7

How did COC(=O)C1=C(c2ccc(-c3ccccc3)c(F)c2)C[C@@H]2CC[C@H]1N2C(=O)N1CCC(C)CC1 do in these assays?
Beta cell apopt: 7; FGF22 binding: inactive; MLL AF4-AF9 inh: -0.1; Ecoli rRNA inh: 5; Bfl-1 A1 inh: -0.1; UCH37 inh: 11; Ecoli rRNA inh OD600: 9; Ecoli rRNA inh RFP: 0.0

How did CN1C2CCC1C(COC(=O)c1ccccc1)C(O)C2 (stereo unspecified) do in these assays?
Beta cell apopt: 0; FGF22 binding: inactive; MLL AF4-AF9 inh: -3.3; T cruzi repl: 5; Ecoli rRNA inh: 15; Bfl-1 A1 inh: -0.2; E coli growth: 0.68; UCH37 inh: 1.2; Ecoli rRNA inh OD600: 20; Ecoli rRNA inh RFP: 0.1

How did CSc1nc2ccc(C)cc2c(=O)n1-c1cccnc1 do in these assays?
FGF22 binding: inactive; MLL AF4-AF9 inh: -0.8; T cruzi repl: 6; Ecoli rRNA inh: 8; Bfl-1 A1 inh: 1.7; E coli growth: 0.65; UCH37 inh: 6.8; Ecoli rRNA inh OD600: -2; Ecoli rRNA inh RFP: 1.9

What do the screens show for `C/C(Cl)=C/CC1(CN2CCCC2=O)C(=O)NC(=O)NC1=O`?
Beta cell apopt: -4; T cruzi repl: 4; Bfl-1 A1 inh: -0.2; UCH37 inh: -1.5

Results for C=C1N2CCC(CC2)C1(O)c1ccc(C)cc1 (stereo unspecified) ?
Beta cell apopt: -1; T cruzi repl: -10; Bfl-1 A1 inh: 0.5; E coli growth: 0.71; UCH37 inh: 4.7

What do the screens show for `CCN(CC)c1ccc(/C=C2\C(=O)NC(=S)N(C)C2=O)o1`?
Beta cell apopt: -6; FGF22 binding: inactive; MLL AF4-AF9 inh: -2.4; T cruzi repl: 16; Ecoli rRNA inh: 7; Bfl-1 A1 inh: -5.0; E coli growth: 0.71; UCH37 inh: 26*; Ecoli rRNA inh OD600: 2; Ecoli rRNA inh RFP: 38

What do the screens show for `CC(C)N1C(=O)/C(=C/C=C/c2ccco2)C(=O)N(Cc2ccco2)C1=O`?
Beta cell apopt: 6; T cruzi repl: -1; Bfl-1 A1 inh: 2.2; E coli growth: 0.73; UCH37 inh: 3.6

How did C[C@]12CC[C@H](O)CC1=CC[C@@H]1[C@@H]2CC[C@@]2(C)[C@H]1CC[C@]2(C)O do in these assays?
Beta cell apopt: 2; T cruzi repl: 19; Bfl-1 A1 inh: -0.8; UCH37 inh: 0.8

Overlap with the part before: two compounds; new compounds follow.
What do the screens show for `CC(C)N1C(=O)/C(=C/C=C/c2ccco2)C(=O)N(Cc2ccco2)C1=O`?
Beta cell apopt: 6; T cruzi repl: -1; Bfl-1 A1 inh: 2.2; E coli growth: 0.73; UCH37 inh: 3.6

How did C[C@]12CC[C@H](O)CC1=CC[C@@H]1[C@@H]2CC[C@@]2(C)[C@H]1CC[C@]2(C)O do in these assays?
Beta cell apopt: 2; T cruzi repl: 19; Bfl-1 A1 inh: -0.8; UCH37 inh: 0.8

How did CCC(C)n1c(O)c(/C=N/N2CCOCC2)c(=O)[nH]c1=S (stereo unspecified) do in these assays?
Beta cell apopt: -10; T cruzi repl: -2; Bfl-1 A1 inh: -0.2; E coli growth: 0.69; UCH37 inh: 11

How did CNC(=O)O/N=C(\N)Cc1csc2ccccc12 do in these assays?
Beta cell apopt: -5; FGF22 binding: inactive; MLL AF4-AF9 inh: inconclusive; T cruzi repl: 1; Ecoli rRNA inh: 9; Bfl-1 A1 inh: -0.5; Ecoli rRNA inh OD600: -2; Ecoli rRNA inh RFP: 2.5

How did C=C1C(O)(c2ccccc2)C2CC[N+]1(C)CC2 (stereo unspecified) do in these assays?
Beta cell apopt: -10; T cruzi repl: -5; Bfl-1 A1 inh: 1.5; E coli growth: 0.67; UCH37 inh: 3.1

What do the screens show for `Cc1ccc(Sc2ccc(C=C3C(=O)N(C)C(=O)N(C)C3=O)o2)cc1`?
Beta cell apopt: -3; FGF22 binding: inactive; MLL AF4-AF9 inh: -0.3; T cruzi repl: -14; Ecoli rRNA inh: 7; Bfl-1 A1 inh: 0.7; E coli growth: 0.69; UCH37 inh: 3.0; Ecoli rRNA inh OD600: 8; Ecoli rRNA inh RFP: -1.8

Results for Fc1cccc(F)c1-c1nc(-c2ccc(Cl)cc2)no1 ?
Beta cell apopt: 3; FGF22 binding: inactive; MLL AF4-AF9 inh: 5.5; T cruzi repl: 14; Ecoli rRNA inh: -1; Bfl-1 A1 inh: -6.2; E coli growth: 0.68; UCH37 inh: 2.6; Ecoli rRNA inh OD600: 11; Ecoli rRNA inh RFP: -3.1

How did O=c1c2ccccc2nc(-c2ccccc2Cl)n1-c1ccc(O)cc1 do in these assays?
Beta cell apopt: 2; FGF22 binding: inactive; MLL AF4-AF9 inh: 3.1; T cruzi repl: -24; Ecoli rRNA inh: -18; Bfl-1 A1 inh: 0.4; E coli growth: 0.66; UCH37 inh: 3.1; Ecoli rRNA inh OD600: -15; Ecoli rRNA inh RFP: 0.9

What do the screens show for `O=P(C(Cl)Cl)(N1CCCCC1)N1CCCCC1`?
Beta cell apopt: -5; T cruzi repl: -4; Bfl-1 A1 inh: 0.6; E coli growth: 0.73; UCH37 inh: 0.5

How did COc1cc(C)c(-c2nc(CN3C[C@@H]4C[C@@H](C3)c3cccc(=O)n3C4)c(C)o2)cc1C do in these assays?
Beta cell apopt: 1; MLL AF4-AF9 inh: -14; T cruzi repl: 23; Ecoli rRNA inh: -26; Bfl-1 A1 inh: 0.1; E coli growth: 0.64; UCH37 inh: -0.7; Ecoli rRNA inh OD600: -25; Ecoli rRNA inh RFP: -2.5

Results for COC(=O)C1=C(c2cccc(OCc3ccccc3)c2)C[C@@H]2CC[C@H]1N2C(=O)NCc1cccc(C(F)(F)F)c1 ?
Beta cell apopt: 7; FGF22 binding: inactive; MLL AF4-AF9 inh: -0.9; Ecoli rRNA inh: 21; Bfl-1 A1 inh: 1.8; E coli growth: 0.81; UCH37 inh: 3.7; Ecoli rRNA inh OD600: 23; Ecoli rRNA inh RFP: -5.9
